Screening data deposited in PubChem by several laboratories.
HNF4A DNA FP: change in binding of human HNF4 alpha to DNA. P41235. HNF4a-FITC DNA binding, fluorescence polarization, 1 h. activity change, % at 10 µM. 0.3% of 360,000 active; in the data active means activity change above about 30%, passing the limit was not always enough;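 further: controls were the assay level and a saturating level of protein; the project sought stronger binding though the title names inhibitors; some compounds called inactive have numbers as strong as hits; positive values seem to mean higher polarization but the record does not say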
Target sequence (P41235 whole entry, looked up): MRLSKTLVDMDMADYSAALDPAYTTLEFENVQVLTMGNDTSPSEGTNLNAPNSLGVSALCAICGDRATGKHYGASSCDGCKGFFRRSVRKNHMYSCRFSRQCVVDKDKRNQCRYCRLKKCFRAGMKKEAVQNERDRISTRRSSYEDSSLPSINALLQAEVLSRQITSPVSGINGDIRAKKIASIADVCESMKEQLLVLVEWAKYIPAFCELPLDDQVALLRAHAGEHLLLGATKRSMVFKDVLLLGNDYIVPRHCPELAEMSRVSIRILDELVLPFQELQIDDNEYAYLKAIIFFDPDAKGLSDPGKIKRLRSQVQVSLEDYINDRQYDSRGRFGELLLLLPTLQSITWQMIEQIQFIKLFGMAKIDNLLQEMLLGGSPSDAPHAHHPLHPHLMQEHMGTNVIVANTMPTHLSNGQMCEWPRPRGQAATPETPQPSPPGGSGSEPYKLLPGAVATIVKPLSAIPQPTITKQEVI
ALR inh: inhibitors of human sulfhydryl oxidase ALR; P55789; purified ALR, DTT oxidation, H2O2 HRP-luminol luminescence; inhibition, % (test concentration not listed); 3.8% of 290,000 active; AID 485317;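 active means mean and each replicate at 75% or more; inconclusive means only one of the two met; inactive means neither met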;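 further: stock transfer was 7.5 nL into about 7.5 µL; 0% = neutral wells and 100% = wells with inactivated enzyme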
Target sequence (P55789 whole entry, looked up): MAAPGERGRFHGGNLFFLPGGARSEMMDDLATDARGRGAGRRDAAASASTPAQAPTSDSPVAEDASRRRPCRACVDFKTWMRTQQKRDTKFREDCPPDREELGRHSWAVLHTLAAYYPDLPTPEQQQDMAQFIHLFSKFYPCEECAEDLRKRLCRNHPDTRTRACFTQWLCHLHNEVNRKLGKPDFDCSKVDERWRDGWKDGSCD
LANA-H2B inh: blocks KSHV LANA binding to histone H2A/H2B. Q9QR71. cell-free LANA-H2A/H2B peptide, fluorescence polarization. inhibition, % (test concentration not listed). 0.6% of 320,000 active. AID 2629; in the data active means inhibition mostly above about 10%, no sharp cut-off; inactive means mostly below about 6.7%;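 further: stock transfer was 7.5 nL into about 10 µL; 0% = median of vehicle wells and 100% = median of positive control wells; one replicate is shown; the record names a cut of 25% in any replicate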
Calb FLC: C. albicans growth modulation with fluconazole | C. albicans CaCi-2 (fluconazole-resistant clinical isolate) + fluconazole, Alamar Blue growth, 48 h | growth inhibition, % (concentration not given with the values) | 0.57% of 300,000 active;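 active means most replicates above 75%; inconclusive means exactly half above 75%; inactive means most below 75%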;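 further: all wells also contain fluconazole at 8 µg/ml as a sub-toxic cotreatment; 0% = median of DMSO wells and 100% = median of geldanamycin control wells; wells of about 8 µL received 7.5 nL stock; the first replicate is given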
B2AR ag: activates human beta-2 adrenergic receptor causing internalization; P07550; Am2.2-beta2AR cells, FAP receptor internalization, flow cytometry; reference of the scale not given here; response, % (concentration not given with the values); 0.43% of 340,000 active;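 active means response above a set limit, near 3 SD of response in nonfluorescent compounds, cut at about 42% in these data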;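 further: stock transfer was 100 nL into about 11 µL; a reference agonist was the positive control; negative values mostly stem from fluorescent compounds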
Target sequence (P07550 whole entry, looked up): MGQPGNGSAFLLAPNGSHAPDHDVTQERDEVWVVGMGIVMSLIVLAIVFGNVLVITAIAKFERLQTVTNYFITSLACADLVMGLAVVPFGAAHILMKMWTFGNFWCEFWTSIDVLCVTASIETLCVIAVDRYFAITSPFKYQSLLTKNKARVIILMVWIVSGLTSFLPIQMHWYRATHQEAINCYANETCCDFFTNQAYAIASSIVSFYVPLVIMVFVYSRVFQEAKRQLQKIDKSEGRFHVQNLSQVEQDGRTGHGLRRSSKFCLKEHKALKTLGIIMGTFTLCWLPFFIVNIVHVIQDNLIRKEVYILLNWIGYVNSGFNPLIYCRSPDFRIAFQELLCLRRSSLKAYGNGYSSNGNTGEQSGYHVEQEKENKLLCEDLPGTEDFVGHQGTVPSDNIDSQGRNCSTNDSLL
RanGTP-Imp inh: inhibitors of RanGTP-importin-beta interaction, primary screen, biochemical, FRET, CFP-Ran, YFP-importin-beta, homogeneous; inhibition, % (no concentration beside the values); 1.1% of 300,000 active; cell-free CFP-Ran/YFP-importin-beta FRET ratio;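 active means most replicates above 15%; inconclusive means exactly half above 15%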;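 further: 0% = DMSO wells and 100% = Ran loaded with GDP instead of GTP; wells of about 40 µL received 100 nL stock; the first replicate is given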
Vif TR-FRET: HIV-1 Vif–A3G interaction blockers – biochemical, TR-FRET, GST-Vif 1-94, biotin-A3G peptide, dose response retest, primary screen (AID 1117319); TR-FRET GST-Vif / biotin-A3G peptide binding; higher % means a stronger effect; test concentration not given here; strong numbers were not always called active; inhibition, %; hits with a dose series show IC50 in µM; 0.57% of 260,000 active;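 active means above the screen mean plus three standard deviations and confirmed in dose response; inconclusive means results disagree or hit not tested in dose response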;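 further: Vif residues 1-94 fused to GST binding biotinylated APOBEC3G peptide 110-148; 0% = full assay without inhibitor and 100% = GST in place of GST-Vif; retest series ran down from 100 µM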
* hit, by the source's call; ? = inconclusive; nt = no result given.

SMILES	HNF4A DNA FP	ALR inh	LANA-H2B inh	Calb FLC	B2AR ag	RanGTP-Imp inh	Vif TR-FRET
CCCCn1c(N)c(N(CCOC)C(=O)c2ccc(S(=O)(=O)N3CCC(C)CC3)cc2)c(=O)[nH]c1=O	3.0	-18	-0.8	-5	-7	0.2	4%
Cc1cn(C(=O)C(C)N2C(=O)c3ccccc3C2=O)c(C)n1 (stereo not given)	1.5	-12	-2.0	9	3	-4.8	-5%
Cc1cccc(-c2noc(Cc3ccc(Cl)cc3)n2)c1	3.6	-2	-2.1	-18	-10	4.8	1%
O=C(CNC1=NCCC1)c1ccc2c(c1)OCCO2	-0.3	nt	nt	-24	1	-1.0	0%
CCOC(=O)c1c(C)[nH]c(C)c1S(=O)(=O)NCc1ccc(OCC)cc1	0.2	-1	0.7	-1	3	?	nt
O=[N+]([O-])c1cn(-c2nc(-c3ccco3)cc(C(F)(F)F)n2)cn1	0.1	nt	2.2	-8	-4	-1.2	1%
CC(=O)c1cccc(NC(=O)CCNC(=O)c2ccccc2Cl)c1	-3.0	-8	6.0	-3	-6	-0.6	5%
COc1ccc(CNc2nc(S(=O)(=O)c3ccccc3)c(Cl)s2)cc1OC	1.3	-2	3.3	11	4	4.0	nt
Cc1ccc(OCCSc2ncnc3sc(C)c(C)c23)cc1C	-0.1	-2	-7.9	5	-4	3.7	-7%
CC(=O)Oc1ccc(N2C(=O)C3C4C=CC(C5CC45)C3C2=O)cc1[N+](=O)[O-] (stereo not given)	1.1	1	3.3	4	5	1.5	-6%
CCCCC[C@@H](/C=C/C1C(=O)C=C[C@H]1C/C=C\CCCC(=O)OC)OC(C)=O (stereo not given in full)	1.2	nt	nt	nt	22	nt	-13%
COc1ccc(Oc2cc(C)nc(Cl)n2)nn1	1.4	1	-3.7	3	3	6.2	-1%
COc1ccc(O)c(CNc2ccccc2F)c1	-1.5	99*	6.9	-3	3	-2.9	-10%
O=C(c1cc(Cl)nc2ccccc12)N1CCN(Cc2ccc3c(c2)OCO3)CC1	4.1	nt	21*	nt	5	nt	nt
O=C(Nc1ccccc1)C1=C[C@H](c2coc3ccccc3c2=O)C[C@H](OCCCCO)O1	0.1	-3	2.0	6	-10	-1.4	-1%
O=C(NCCc1c[nH]c2ccccc12)/C(=C/c1ccco1)NC(=O)c1ccco1	4.1	nt	-2.9	?	-2	-4.5	nt
NC1=NC(=O)CC(C(=O)NCc2ccccc2)S1 (stereo not given)	8.2	-6	4.4	6	5	-4.7	21%
Cc1cc(C)cc(NC(=O)N2CCCCCCC2)c1	1.5	-2	-3.9	?	-2	nt	-3%
C/C(CC(=O)Nc1ccc(Cl)c(C(F)(F)F)c1)=N\NC(N)=S	-0.2	26	-0.4	?	-2	0.1	10%
COc1cccc(NC(=S)NC(=O)c2cncc(Br)c2)c1	-0.3	16	-2.5	-25	-6	8.3	nt
COc1ccccc1-c1cc(C(F)(F)F)nc(N2CCOCC2)n1	0.8	nt	3.2	-4	0	3.8	3%
O=C(NC(=S)Nc1ccccc1)c1cc(-c2ccccc2)nc2ccccc12	-9.3	2	3.2	8	2	-0.9	0%
O=C(c1cccc(S(=O)(=O)N2CCN(c3ccccc3)CC2)c1)N1CCN(c2ccccc2O)CC1	-5.9	nt	nt	2	-10	?	3%
Cn1ncc(Br)c1NC(=O)Nc1ccccc1	-0.8	nt	-5.1	4	-2	?	-1%
CCCCN(C)C(=O)c1cn(C)c2ccc(S(=O)(=O)N(C)C)cc2c1=O	2.2	-5	2.6	-8	5	-7.6	14%
The listing continues.
SMILES	HNF4A DNA FP	ALR inh	LANA-H2B inh	Calb FLC	B2AR ag	RanGTP-Imp inh	Vif TR-FRET
COC(=O)[C@]1(Cc2ccccc2)N[C@H](CN(C)S(=O)(=O)c2ccc(-c3ccccc3)cc2)[C@@H]2C(=O)N(Cc3ccccc3)C(=O)[C@@H]21	-3.0	nt	0.1	nt	0	nt	nt
CCC(Cc1ccccc1)NC(=O)c1cc(S(=O)(=O)N2CCCCC2)c[nH]1 (stereo not given)	0.8	5	-1.8	4	0	5.3	nt
CSCC[C@H](NC(=O)[C@@H]1Cc2ccccc2CN1)C(=O)NC1CCCC1	-2.3	-11	-5.8	-3	1	3.3	1%
Cc1ccccc1N1CCN(C2CCCN(C(=O)c3cc(CC(C)C)nn3C)C2)CC1 (stereo not given)	0.8	3	7.7	0	11	-1.0	-2%
Cc1ccc(NC(=O)C2C3C=CC4(O3)C2C(=O)N(CCCN2CCCC2)C4C(=O)NC2CCCCC2)cc1Cl (stereo not given)	-3.7	-2	-1.5	1	-10	-1.1	nt
Cc1nc(N2CCN(c3ccccn3)CC2)c2c(C)c(C(=O)Nc3ccc(Cl)cc3)sc2n1	3.3	-2	0.3	2	2	6.4	nt
Cc1ccc2c(c1)N(CC(=O)NCCCN1CCCCC1)C(=O)CO2	-0.5	0	1.7	1	4	?	nt
CCOC(=O)CCc1c(C)c2ccc(OCC)c(C)c2oc1=O	nt	-2	-2.1	16	nt	?	5%
CCOC(=O)c1cc(-c2ccccc2)nn1Cc1cc(C)no1	-1.8	-1	-0.6	-27	-4	1.2	nt
CCOC(=O)NC(=O)CSc1ccc(S(=O)(=O)N(C)C2CCCCC2)cn1	1.9	nt	-2.3	nt	-12	nt	nt
COc1ccc2c(n1)Sc1nc3ccccc3nc1N2	32	-27	-5.2	0	-137	-79	5%
Cc1ccc(C)c(NC(=S)NCc2ccc3[nH]c4c(c3c2)CCCC4)c1	0.6	6	-6.3	-11	-2	4.6	2%
O=C(NCc1ccccn1)c1cccc([N+](=O)[O-])c1	1.7	-7	-2.9	5	-3	-0.2	?
Cc1nnc(SCC(=O)Nc2cccc(C(F)(F)F)c2)[nH]c1=O	-2.3	98*	1.6	?	5	?	19%
O=C(NCc1ccccc1)C1(CC2CC(c3ccccc3)=NO2)CCNCC1 (stereo not given)	1.4	-10	4.8	nt	7	nt	nt
CCOC(=O)C[C@H]1c2cc(F)ccc2S(=O)(=O)N1C(C)(C)C	5.7	?	-4.0	-3	5	-11	nt
CC1(C(=O)Nc2cccc3ccccc23)CC1(Br)Br (stereo not given)	0.2	nt	-0.2	1	1	-0.2	20%
O=C(OCn1ncc(Cl)c(Cl)c1=O)c1ccc(C(F)(F)F)cc1	1.8	nt	nt	106*	4	-0.3	-16%
COc1cc(C(F)(F)F)nc2c(Br)c(C(C)(C)C)nn12	5.7	-12	-0.3	-23	-1	-2.9	4%
CCN1CCN(C(=O)C2CCN(S(=O)(=O)c3cccc4cccnc34)CC2)CC1	1.8	98*	2.4	-6	-6	-1.1	8%
Cn1c(Cc2ccccc2)nnc1SCC(=O)NCCc1ccccc1	-0.8	-6	-2.2	16	1	-1.0	-7%
CCn1cnc2c(oc3ccccc32)c1=O	4.0	1	0.4	-3	-4	-3.2	14%
O=C(CCCn1c(=S)[nH]c2ccsc2c1=O)NCc1ccco1	2.5	nt	-0.4	14	-13	4.1	23%
CC(C)(C)C(=O)NC(=C(Cl)Cl)P(=O)(O)O	4.6	-6	-2.9	nt	-6	nt	6%
OCc1cn(-c2ccccc2)nc1-c1ccc2c(c1)OCCO2	1.8	4	2.6	6	-13	-3.5	-2%

Three of the entries above in order of the ALR inh value, falling:
smiles | HNF4A DNA FP | ALR inh | LANA-H2B inh | B2AR ag | RanGTP-Imp inh | Vif TR-FRET
Cc1nnc(SCC(=O)Nc2cccc(C(F)(F)F)c2)[nH]c1=O | -2.3 | 98* | 1.6 | 5 | ? | 19%
Cc1ccccc1N1CCN(C2CCCN(C(=O)c3cc(CC(C)C)nn3C)C2)CC1 (stereo not given) | 0.8 | 3 | 7.7 | 11 | -1.0 | -2%
O=C(NCc1ccccn1)c1cccc([N+](=O)[O-])c1 | 1.7 | -7 | -2.9 | -3 | -0.2 | ?

(next part)
SMILES	HNF4A DNA FP	ALR inh	LANA-H2B inh	Calb FLC	B2AR ag	RanGTP-Imp inh	Vif TR-FRET
COc1cccc(C(=O)Nc2ncc3c(n2)CC(C)CC3=O)c1 (stereo not given)	0.4	-23	1.8	4	-8	4.3	28%
COc1ccc(N(CC(=O)N/N=C/c2cccnc2)S(=O)(=O)c2ccccc2)c(OC)c1	-4.0	-25	-1.5	-12	-12	-0.4	nt
CC1=NOC(=O)/C1=C\c1ccc(-c2ccc(Br)cc2)o1	1.0	nt	nt	-1	83*	0.6	10%
Cc1ccc(/C(O)=C2/C(=O)C(=O)N(CC(=O)O)C2c2ccc([N+](=O)[O-])cc2)cc1 (stereo not given)	2.1	37	-2.7	-4	-3	3.5	-17%
NC(=S)NNc1cc(Cl)cc(Cl)c1	2.0	97*	7.8	-2	-8	-1.3	-6%
O=C(N/N=C/c1ccccn1)c1cc(C2CC2)nc2ccccc12	0.0	3	-0.9	-3	-3	-1.1	nt
CNC(=O)Nc1ccccc1F	-1.1	-2	0.8	-1	-13	2.0	-2%
Clc1ccc(-c2csc(-c3cccnc3)n2)s1	-0.8	-3	-4.0	1	-2	-2.8	-5%
Cc1ccc(C)c(N2CCN(C(=O)CCCn3ncn4c(cc5occc54)c3=O)CC2)c1	2.0	-2	2.0	-15	-2	4.0	-3%
COc1ccc(NC(=O)/C(C#N)=C\c2ccc(Br)o2)cc1	-7.5	nt	1.0	-3	-4	2.0	6.3µM*
Cc1ccccc1SCC(=O)OCC(=O)N1CC(=O)Nc2ccccc21	-0.8	-7	-4.5	nt	-5	nt	nt
N#Cc1cc2c(nc1SCc1ccncc1)CCC2	0.9	2	-4.6	-8	-21	1.2	?
CCOc1ccc(C2C(C#N)=C(N)SC(N)=C2C#N)cc1OCC	139	13	-23	16	-27	33*	14%
COC(=O)CC(NC(=O)c1ccco1)c1ccc(C(C)C)cc1 (stereo not given)	-3.3	1	-1.2	0	-1	0.4	8%
NC(=O)NO	-1.2	2	-3.8	nt	2	nt	nt
CCCN1CCN(C(=O)CN2C(=O)COc3ccc(S(=O)(=O)N(CC)CC)cc32)CC1	-0.8	25	nt	-4	-4	-0.7	nt
Cc1ccc2c(CN3CCC(C(N)=O)CC3)cc(=O)oc2c1C	2.5	95*	-0.5	4	-6	4.4	nt
CCOc1ccc(CN(C)CC(=O)Nc2cc(OC)c([N+](=O)[O-])cc2C)cc1	2.3	2	2.7	-23	2	-2.8	nt
CCC(C)[C@H]1CNC(=S)N1CCC12CC3CC(CC(C3)C1)C2 (stereo not given in full)	-2.6	-5	16*	-9	-10	0.8	29%
Cc1cccc(C(=O)OCC(=O)c2cccc(Br)c2)c1O	2.5	-5	5.7	-1	-4	0.7	-27%
N#Cc1ccc(/C=C/C(=O)c2cccnc2)cc1	2.1	-1	0.6	43	1	2.8	-1%
CCn1cc(CN2CCC(n3nccc3NC(=O)CCOc3ccccc3)CC2)c(C)n1	-3.2	-3	nt	11	-4	-2.4	nt
CSCCC(NC(=O)c1ccco1)C(=O)NCC(C)(C)N1CCOCC1 (stereo not given)	2.6	-8	-3.0	nt	24	nt	2%
COc1ccc(NC(=O)CNC(=O)CC23CC4CC(CC(C4)C2)C3)c(OC)c1	-3.5	nt	nt	nt	-2	nt	-3%
CCc1ccc(NC(=S)N2CCCCCCC2)cc1	4.6	nt	-4.4	-22	-6	0.3	nt

Entries of single compounds from above. Screens in order: HNF4A DNA FP | ALR inh | LANA-H2B inh | Calb FLC | B2AR ag | RanGTP-Imp inh | Vif TR-FRET
`COc1cccc(C(=O)Nc2ncc3c(n2)CC(C)CC3=O)c1` (stereo not given) across the screens: 0.4 | -23 | 1.8 | 4 | -8 | 4.3 | 28%
`COc1ccc(NC(=O)CNC(=O)CC23CC4CC(CC(C4)C2)C3)c(OC)c1` across the screens: -3.5 | nt | nt | nt | -2 | nt | -3%
